# miR-21 FLuc: miR-21 reporter, rising signal; HeLa miR-21 FLuc reporter, luciferase, 48 h; Potency, µM (titrated, usually from 38.3 µM), for inactives: at the highest dose reporter change, positive = more light; 340,000 tested, under 10 active; AID 2288; active = well fitted rising curve with a large enough effect; inconclusive = small, poorly fitted or top-dose-only effect; inactive = no such curve, though single readings can be large or run the other way;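 note: % of control where 0% means no effect; miR-21 action dims this reporter so a rising signal means less miR-21 action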
#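 Luminescence from a firefly luciferase reporter carrying a miR-21 binding site downstream, stably expressed under a CMV promoter in HeLa cells that make miR-21 endogenously, reports miRNA modulation after 48 h compound exposure up to approximately 40uM final.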
# Rango complex inh: Rango-importin beta binding inhibition; Potency, µM (titrated, usually from 92.2 µM), without a hit: at the highest dose inhibition of complex formation; Q14974; Rango CFP/YFP FRET sensor + importin beta, 45 min; AID 540263; actives 0.031% (n = 340,000); active = rising FRET ratio curve, often small or poorly fitted; inconclusive = mostly compound fluorescence or quenching in the first reads; inactive = flat curves in all reads;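 note: potency is the fitted concentration of half-maximal effect; 0% = DMSO wells and 100% = buffer wells lacking importin beta; nearly all actives have a fitted effect of over 15% in size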
#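 Inhibition scored from the CFP 486 nm/YFP 530 nm FRET ratio 45 min after adding 0.125 microM importin beta to 50 nM Rango biosensor preincubated 5 min with compound (room temperature, PBS with DTT, Tween-20, BSA). No-importin wells as positive control.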
# GLA inh pH 4.5: inhibitors of human alpha-galactosidase A at pH 4.5; P06280; purified enzyme, 4-MU-alpha-Gal fluorescence, pH 4.5; activity change, negative = inhibition, % at 105 µM; 230,000 tested, under 10 active; AID 1467; inconclusive = small, poorly fitted or top-dose-only inhibition, or a rising curve; inactive = flat fitted curve, though single readings scatter; no compound was filed as active;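 note: 0% = full activity with enzyme and -100% = basal without enzyme; dose as in the result columns while the protocol names 77 µM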
# Target sequence (P06280 whole entry, looked up): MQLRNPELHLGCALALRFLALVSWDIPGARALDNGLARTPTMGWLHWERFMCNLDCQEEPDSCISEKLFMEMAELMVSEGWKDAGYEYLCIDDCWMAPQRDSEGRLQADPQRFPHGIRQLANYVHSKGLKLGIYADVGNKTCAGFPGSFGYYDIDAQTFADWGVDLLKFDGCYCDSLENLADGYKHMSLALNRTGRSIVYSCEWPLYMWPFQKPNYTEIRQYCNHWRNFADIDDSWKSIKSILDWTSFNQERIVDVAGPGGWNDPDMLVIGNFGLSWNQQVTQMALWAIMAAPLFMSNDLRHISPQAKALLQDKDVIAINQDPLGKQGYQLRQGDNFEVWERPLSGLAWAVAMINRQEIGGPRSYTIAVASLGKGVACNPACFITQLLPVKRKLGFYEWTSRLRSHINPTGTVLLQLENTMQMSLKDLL
# Rango release inh: prevents RanGTP from dissociating the Rango-importin beta complex; Biochemical FRET Rango-importin beta, RanGTP-induced dissociation; Potency, µM (top dose mostly 46.1 µM), for the others: at the highest dose activity change, negative = inhibition; actives 0.071% (n = 340,000); AID 540253; active means falling FRET ratio curve, often poorly fitted, with flat reads before Ran was added; inconclusive means other falling curves, or compound fluorescence or quenching; inactive means flat or rising ratio curve;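 note: potency is the fitted concentration of half-maximal effect; % of control where 0% means no effect; nearly all actives have a fitted effect of over 45% in size; -100% = wells without RanGTP and RCC1; the record marks most hits as doubtful in a second field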
#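 Recombinant Rango FRET biosensor (EYFP–snurportin 1 IBB–cerulean CFP10) at 0.1 uM premixed with 0.25 uM importin beta in PBS, 1 mM DTT, 0.02% Tween-20, 0.1% BSA. Compound added 5 min; RanGTP-RCC1 (0.6 uM Ran, 2 mM GTP, 0.2 uM RCC1) then triggers release, read at 45 min.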
# Numbers without * were called inactive; ? = inconclusive; . = not tested or not shown; & = joins results of further samples; [ ] = another dose, or the depositor's remark. An excerpt, so the mix of outcomes need not match the whole.
structure | miR-21 FLuc | Rango complex inh | GLA inh pH 4.5 | Rango release inh
CC(C)[C@H](NC(=O)OCc1ccccc1)C(=O)OCC(=O)NCc1ccco1 | . | ? | . | ?
COc1cc(C(=S)N2CCOCC2)ccc1OC(=O)c1ccccc1 | 0% | 1.6% | . | 8%
CCOC(=O)c1cc(C#N)c(=S)[nH]c1C | -16% | ? | 3 | 8%
CCOC(=O)CNc1ccc2c(c1)OCO2 | -13% | -0.5% | -15 | 5%
COc1cccc(N2CCN(C(=O)c3cccc(NC4=NC5CS(=O)(=O)CC5S4)c3)CC2)c1 (centres undefined) | 3% | -1.2% | . | 0%
CC(C)(C)OC(=O)N1CCC(CC2CC(c3ccccc3)=NO2)(C(=O)NCc2ccccc2)CC1 (centres undefined) | . | 0.2% | . | 15%
CC1(C)CC(=O)C/C(=N\NC(=O)C2C3CCCCC32)C1 (centres undefined) | -28% | 0.1% | -18 | -17%
Cc1cccc2c1NC(C)CC2C (centres undefined) | -2% | -2.4% | 4 | -4%
COc1ccc(C2CC(c3cccs3)=NN2C(=O)CSc2nc3c(cnn3-c3ccccc3)c(=O)[nH]2)cc1 (centres undefined) | -6% | -0.3% | -6 | -17%
Cc1sc(NC(=O)c2cccc([N+](=O)[O-])c2)c(C(N)=O)c1-c1ccc(C(C)(C)C)cc1 | -34% | -1.9% | 4 | 1%
CCOc1cc(C(=S)N2CCCCC2)ccc1OS(=O)(=O)c1ccc(Cl)cc1 | 19% | -0.3% | -21 | 1%
CCn1ncc(C(=O)Nc2ccc(F)cc2)c1C | . | -2.5% | . | -2%
O=C(Cn1cnc2ccccc21)c1ccc(Br)cc1 | -25% | 0.0% | -3 | 2%
O=c1oc2cc([N+](=O)[O-])ccc2nc1/C=C(O)/C=C/c1ccccc1 | 0% | . | -8 | .
COC(=O)c1ccccc1NC(=O)Cn1c(-c2nonc2N)nc2ccccc21 | 14% | 0.2% | 1 | -7%

# Brought forward from above: 2 compounds; new compounds follow.
structure | miR-21 FLuc | Rango complex inh | GLA inh pH 4.5 | Rango release inh
O=c1oc2cc([N+](=O)[O-])ccc2nc1/C=C(O)/C=C/c1ccccc1 | 0% | . | -8 | .
COC(=O)c1ccccc1NC(=O)Cn1c(-c2nonc2N)nc2ccccc21 | 14% | 0.2% | 1 | -7%
FC(F)(F)c1cccc(NC(=S)NCC2COc3ccccc3O2)c1 (centres undefined) | ? | 0.5% | -3 | 2%
CS(=O)(=O)NCC(c1ccco1)N1CCN(c2ccc(F)cc2)CC1 (centres undefined) | -3%&1% | 0.1% | 2 | 13%
COc1cc(SC)ccc1C(=O)Nc1ccc2c(c1)OCO2 | -47% | -1.4% | -9 | -1%
Cc1cc(C)cc(N(C(=O)c2csnn2)C(C(=O)NC2CCCC2)c2ccccn2)c1 (centres undefined) | 0% | 3.2% | . | 2%
O=[N+]([O-])c1ccccc1Oc1ccc(S(=O)(=O)N2CCOCC2)cc1 | . | -0.2% | . | -9%
CC(C=NNc1ccc([N+](=O)[O-])cn1)=Cc1ccccc1 | . | ? | . | -19%
COc1ccc(N2CCN(C(=O)C3CCCN(S(=O)(=O)c4ccc(F)cc4)C3)CC2)cc1 (centres undefined) | 13% | 2.5% | . | -3%
CC(C)c1ccc(N2C=Nc3ccc(C(C)C)cc3C2)cc1 | -4% | 4.6% | -8 | 3%
COc1ccc(-c2noc(CCC(=O)NC3CCCCC3)n2)cc1 | -3% | -0.3% | . | -2%
O=C(CCC(=O)OCc1ccc([N+](=O)[O-])cc1)Nc1ccc(F)cc1 | 0% | -2.5% | 12 | 1%
COc1ccc(/C=C/C(=O)Nc2ccccc2F)cc1S(=O)(=O)N1CCOCC1 | . | 2.9% | . | -7%
CCC(=O)N=c1ccn(C2=Nc3ccccc3NC2=C(C#N)C#N)cc1 | 0% | ? | -11 | -16%
Cc1noc(C)c1COc1ccccc1C(=O)N1CCN(S(=O)(=O)c2cccc([N+](=O)[O-])c2)CC1 | . | -0.1% | . | -3%
O=C(NC1CCCCCC1)C1CCCN(c2ncccn2)C1 (centres undefined) | -53% | 1.4% | . | 1%
COC(=O)c1nc(NC(=S)NC(=O)c2cccs2)sc1C | -32% | 3.6% | . | -2%
O=C(Nc1cccs1)NC1CCCC1 | -11% | ? | -5 | ?
OC(CNCCCCNCC(O)C(F)(F)F)C(F)(F)F (centres undefined) | -5% | 2.7% | 4 | 31%
Cc1ccc2nc(Nc3ccc(C)c(C)c3)c3nncn3c2c1 | -19% | -0.4% | . | 6%
CCOCCCNC(=S)N1CCC(NC(=O)C23CC4CC(CC(C4)C2)C3)CC1 | 3% | 1.8% | 8 | 9%
Cc1nn(-c2ccccc2)c(C)c1/C=C/C(=O)OC(C)C(=O)Nc1ncc(Cl)cc1Cl (centres undefined) | -7% | ? | 6 | -1%
COc1cccc(OC)c1C(=O)N1CCN(S(=O)(=O)c2ccc(C)cc2)CC1 | -8% | -0.5% | -12 | 4%
Cc1ccccc1NC(=O)Cn1cnc2c(oc3ccccc32)c1=O | 2% | -0.3% | 2 | 2%
CC(NC(=O)Cc1c(F)cccc1Cl)C1CCCO1 (centres undefined) | -4% | -3.0% | 1 | -13%
c1ccc2nc(N3CCN(Cc4ccc5c(c4)OCO5)CC3)cnc2c1 | -3% | -1.1% | -2 | -2%
Cc1ccsc1C(=O)NNC(=S)NC1CCCCC1 | -35% | ? | . | 1%
CN1CCc2c(n(CC(O)CN(CCO)CCO)c3ccccc23)C1=O (centres undefined) | 1% | 0.9% | -2 | -13%
c1ccc(CCc2nn3c(C4COc5ccccc5O4)nnc3s2)cc1 (centres undefined) | -30% | 1.0% | -8 | 12%
Cc1ccc(-c2nc(C#N)c(NCCc3ccccn3)o2)cc1 | -34% | -3.5% | 3 | 5%
COc1ccccc1OCC#CCn1ccnc1 | 2% | 0.0% | 4 | 28%
CC(=O)N(c1ccc(C)cc1)S(=O)(=O)c1ccc(Cl)cc1 | -6% | ? | 0 | 2%

# (further entries)
# Values run as follows: miR-21 FLuc	Rango complex inh	GLA inh pH 4.5	Rango release inh
S=C1NCN(C2CCCCC2)CN1c1ccccc1
  0%	0.7%	-3	-3%
COc1ccc(CN2C(=O)COc3ccccc32)cc1
  1%	0.0%	.	5%
CCOc1cc(C(c2c(C)[nH][nH]c2=O)c2c(C)[nH][nH]c2=O)cc(Cl)c1O
  -6%	1.6%	.	3%
Brc1ccc(C2=CC(c3cccs3)n3ncnc3N2)cc1 (centres undefined)
  11%	?	15	?
CN1CCCCCC1C(=O)N1CCC(N2CCC(C(=O)N3CCOCC3)CC2)CC1 (centres undefined)
  -2%	0.0%	4	-1%
CC(C)n1c(NCc2nc3ccccc3n2C)nc2ccccc21
  -8%	1.6%	-1	-5%
Cn1c(SCC(=O)N2CCCc3ccccc32)nnc1-c1ccco1
  -4%	6.2%	4	20%
NS(=O)(=O)c1ccc(CCNC(=O)CNC(=O)C2CCCCC2)cc1
  -3%	-0.1%	-2	0%
COC(=O)c1ccc(C(=O)N2CCCC(N3CCN(c4ccccc4)CC3)C2)nc1 (centres undefined)
  -1%	-1.3%	.	9%
CC(C)C[C@H]1CNC(=S)N1CC1CCN(CCC2CCCC2)CC1
  .	-6.6%	.	1%
COc1ccc([C@@H]2[C@@H](C(=O)C(C)(C)C)N3N=Cc4ccccc4[C@@H]3C23C(=O)OC(C)(C)OC3=O)cc1OC
  -5%	0.8%	-11	-10%
COCCCn1c(SCc2nnc(-c3ccc(OC)c(OC)c3)o2)nnc1-c1ccncc1
  -12%	0.4%	-9	-6%
CCCC(C)NC(=O)CN(Cc1ccco1)S(=O)(=O)c1ccccc1 (centres undefined)
  .	-0.1%	.	39%
CN(C)c1ccc(/C=C2/C[N+](C)(C)C/C(=C/c3ccc(N(C)C)cc3)C2=O)cc1
  .	?	.	16µM*
COc1ccc(/C(C)=N/NC(=O)CCC(=O)Nc2ccc(Cl)cc2Cl)c(OC)c1
  2%	3.4%	-5	36%
O=C(c1ccc(Cl)c(S(=O)(=O)N2CCOCC2)c1)N1CCN(c2ccccc2)CC1
  2%	4.3%	.	5%
C=CCSc1nnc(NC(=O)CSc2nc3ccccc3[nH]2)s1
  -15%	0.7%	4	-3%
COCCn1cnc2c1c(=O)n(CC(=O)OCC#N)c(=O)n2Cc1ccccc1
  -1%	-3.3%	-10	-18%
O=C(/C=C/c1ccco1)NCCCN1CCN(CCCNC(=O)/C=C/c2ccco2)CC1
  -3%	-1.2%	4	13%
C=CCNC(=O)COC(=O)c1cc(S(=O)(=O)N2CCCCC2)ccc1Cl
  0%	2.8%	-8	6%

# Single records, as listed above.
# Cc1ccc(-c2nc(C#N)c(NCCc3ccccn3)o2)cc1 is listed with miR-21 FLuc: -34%; Rango complex inh: -3.5%; GLA inh pH 4.5: 3; Rango release inh: 5%
# Cc1ccsc1C(=O)NNC(=S)NC1CCCCC1 is listed with miR-21 FLuc: -35%; Rango complex inh: ?; GLA inh pH 4.5: .; Rango release inh: 1%

# Following part:
# Values run as follows: miR-21 FLuc	Rango complex inh	GLA inh pH 4.5	Rango release inh
Cc1cc(=O)[nH]c2ccc(S(=O)(=O)N3CCOCC3)cc12
  -9%	-0.6%	.	0%
CCOc1ccc(NS(=O)(=O)c2ccc(NC(=O)c3ccccn3)cc2)cc1
  .	-2.2%	.	-24%
[O-]/C(=C(\C(=S)Nc1cccc2ccccc12)[n+]1cccc(CO)c1)c1ccc(Cl)s1
  -23%	-2.4%	3	0%
CN1CCN(c2ccc([N+](=O)[O-])c(Sc3nc4ccccc4[nH]3)c2)CC1
  -3%	-4.5%	-11	-2%
CCOc1cccc(/C=N/NC(=O)CC2C(=O)NN=C2C)c1O (centres undefined)
  0%	-4.7%	5	?
CCCC1(c2ccccc2)NC(=O)N(CCN2C(=O)c3ccccc3C2=O)C1=O (centres undefined)
  0%	-0.3%	-19	7%
COc1cc(OC)cc(-c2nnc(SCC(=O)N3CCCC3)o2)c1
  -11%	?	1	8%
CN(C(=O)COC(=O)c1ccc(Cl)cc1N)C1CCS(=O)(=O)C1 (centres undefined)
  -3%	?	15	1%
COc1ccc(/C=N/NC(=O)c2ccncc2)cc1CN1CCCc2ccccc21
  -1%	-8.4%	-4[21.1 µM]	-1%
S=C1NC2(CCS1)Oc1ccccc1C1CC(c3ccccc3)=NN12 (centres undefined)
  -33%	.	-3	.
NC(=O)c1ccsc1NC(=O)COC(=O)C1CCCN1C(=O)c1cccs1 (centres undefined)
  -5%	0.1%	5	0%
CCc1nnc(NC(=O)CSCc2cc(=O)n3ccsc3n2)s1
  0%	0.2%	.	14%
CCCN(CC(=O)Nc1ccccc1C)C(=O)c1ccc(OCc2c(C)noc2C)cc1
  .	-3.6%	.	3%
Cc1cc([N+](=O)[O-])nn1Cc1noc(C(=O)NCCCn2ccnc2)n1
  3%	-3.7%	.	-8%
COc1ccc(NC(=O)C(NC(=O)c2ccc(=O)[nH]c2)c2ccccc2)cc1 (centres undefined)
  -9%	1.6%	-13	-12%
CC(Oc1ccc(Cl)cc1Cl)C(=O)NC1CCSC1=O (centres undefined)
  -4%	-3.4%	-1	17%
CC1(C)C2CCC1(C)C(NC1=NCCC1)C2 (centres undefined)
  0%	5.3%	5	-1%
NC(=O)C1(N2CCCCC2)CCN(C(=S)Nc2ccccc2)CC1
  -11%	-1.3%	7	0%
O=C(c1cccc(S(=O)(=O)N2CCOCC2)c1)N1CCN(S(=O)(=O)c2cccc([N+](=O)[O-])c2)CC1
  .	0.4%	.	2%
c1ccc(Cn2c(CNc3nc4ccccc4n3CCN3CCOCC3)nc3ccccc32)cc1
  -14%	-0.9%	-9	3%
COc1ccc(Cn2c(C)cc3c(c2=O)C(c2cccs2)C(C#N)=C(N)O3)cc1OC (centres undefined)
  -5%	-1.0%	13	13%
